Assay outcomes deposited in PubChem BioAssay by several laboratories.
PrP UTR inh = inhibition of PrP 5' UTR reporter expression. AID 488862. inhibition, % (concentration not given with the values). 0.35% of 340,000 active. cell-based PrP 5' UTR mRNA reporter, plate reader;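 active means every replicate at 50% or more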;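 further: 0 = median of the neutral control wells; tested in H4 reporter cells; numbers are from one replicate; inactives centre near -14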
Autofluor counter = flagged as autofluorescent in microsphere protease counterscreen | fluorescence intensity (test concentration not listed) | 3.1% of 360,000 active | compound autofluorescence counterscreen, microsphere flow cytometry; stronger effect = higher value | AID 624483;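 active means at least 3 SD above the mean of all compounds, about 16000 in these data; inconclusive means too few beads counted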;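 further: 100 nL of 1 mM stock went into each well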
BJeLR viability = kills HRASV12-expressing BJeLR cells; BJeLR (HRASV12) viability, CellTiter-Glo ATP luminescence, 48 h; reference of the scale not given here; inhibition, % (no concentration beside the values); 0.17% of 300,000 active; AID 1554;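 active means replicate mean above 50%; inconclusive means above 50% but judged a plate artefact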;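 further: 50 nL library stock added to about 25 µL; numbers are from one replicate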
RN4220 kill = S. aureus RN4220 growth inhibition | 0.33% of 330,000 active | inhibition, % (test concentration not listed) | OD600, 16 h;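 active means z-score of -3 or lower and OD600 up to 0.18 on both plates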;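 further: plate controls were untreated cells for no effect and reference antibiotic for full effect; stock transfer was 100 nL into about 80 µL; one replicate is shown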
Mtb hypoxia rep = reduces hypoxia-regulated biosensor signal in M. tuberculosis; M. tuberculosis hypoxia-regulated fluorescent reporter, fluorescence; fluorescence inhibition, % (no concentration beside the values); 0.1% of 300,000 active;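 active means 35 to 45% if threefold the growth effect, above 45% if 1.5-fold the growth effect; inactive means the rest, general growth blockers included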;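 further: wells of about 50 µL received 100 nL stock; 0% = vehicle wells and 100% = reference inhibitor wells; whole bacteria with a GFP reporter of the hypoxia response; strong numbers were not always called active; many hits fall short of the cut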
Sa ugtP lethal = compounds lethal to S. aureus RN4220 ugtP deletion mutant. 0.54% of 330,000 active. growth inhibition, % (concentration not given with the values). OD600 growth, 16 h; some inactives read as strong as hits;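 active means z-score under -3 and OD600 up to 0.15 on both plates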;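 further: plate controls were untreated wells for no effect and antibiotic for full effect; wells of about 80 µL received 100 nL stock; the first replicate is given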
Mtb hypoxia rep growth = second read-out of Mtb hypoxia rep, no call of its own (marks repeat the call); growth inhibition, %; measured here: M. tuberculosis growth (absorbance);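 0% = vehicle and 100% = reference antibiotic; read after six days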
An asterisk follows results filed as active; u = inconclusive; x = not tested or not shown.

SMILES	PrP UTR inh	Autofluor counter	BJeLR viability	RN4220 kill	Mtb hypoxia rep	Mtb hypoxia rep growth	Sa ugtP lethal
CS(=O)(=O)c1ccc(Cl)c(NC(=O)COC(=O)CNC(=O)c2sc3ccccc3c2Cl)c1	-32	6613	-2	2.5	-6	-7	-5
Cn1cc(C(=O)NCN2CCCCC2)c2ccccc21	-7	2960	-1	-9.3	8	7	-5
Cc1cccc(C=Nn2c(-c3ccco3)n[nH]c2=S)c1	x	x	x	15	4	0	2
O=C(Nc1nccs1)c1cn2ccccc2n1	-77	5249	12	3.1	5	9	7
Cc1nc2ccccc2n1C(=O)c1ccccc1[N+](=O)[O-]	-6	2019	0	7.2	1	12	5
Cc1ccc(S(=O)(=O)N2CCCCC2)cc1NC(=O)CSc1ncn[nH]1	-4	4586	16	2.7	14	15	6
CCCN1C2CCCC1CC(NC(=O)c1ccccc1Br)C2 (configuration not stated)	-23	3553	-6	2.9	9	5	22
Cc1nc(C)c(C(=O)N2CCCC(C(=O)c3ccc(Cl)cc3C)C2)s1 (configuration not stated)	-6	5560	2	3.5	4	9	5
Cc1cc(C)c(S(=O)(=O)NCC(c2ccc3c(c2)OCO3)N2CCOCC2)c(C)c1 (configuration not stated)	-13	6950	-2	x	x	x	x
COc1cc(/C=C2/SC(=S)N(CC(=O)O)C2=O)ccc1OCC(=O)Nc1ccc(C)c(C)c1	-32	6342	2	x	x	x	x
O=C(COC(=O)CCC1CCCC1)Nc1cccc(S(=O)(=O)N2CCOCC2)c1	-10	u	4	2.9	4	-12	8
C/C(=N\N=C1\NC(=O)CS1)c1cccs1	-28	3318	1	x	x	x	x
FC(F)Oc1ccc(-c2csc(=Nc3cccnc3)n2CC2CCCO2)cc1 (configuration not stated)	4	2540	0	1.9	2	7	5
CCOC(=O)CC1C(=O)NCCN1S(=O)(=O)c1ccc(C)cc1 (configuration not stated)	-27	4190	1	-3.4	-13	1	-2
Nc1c(S(=O)(=O)c2cccc(Cl)c2)c2nc3ccccc3nc2n1CCN1CCOCC1	3	16491*	-3	3.1	-4	2	12
CCOC(=O)c1ccc(N2C(=O)CC(C3CCCO3)C2=O)cc1 (configuration not stated)	-2	3353	-2	3.7	3	9	-6
Cc1ccc(N(CC(=O)NCC2CCCO2)S(C)(=O)=O)cc1Cl (configuration not stated)	-32	5846	-12	3.0	11	4	6
Cc1nn(Cc2ccccc2)c(C)c1C(=O)N1CCN(CC(=O)Nc2ccc(F)cc2)CC1	x	5736	x	1.1	9	7	4
CCCCn1c(NC(=S)Nc2ccccc2)nc2ccccc21	-4	1980	4	11	8	6	8
O=C(NC(=S)Nc1ccc(Cc2ccncc2)cc1)c1ccccc1Cl	-19	9034	18	0.5	-7	6	8
O=C(N/N=C/c1cccc([N+](=O)[O-])c1)c1cccc2cc[nH]c12	-11	2125	0	x	x	x	x
CS(=O)(=O)c1ccc(C(=O)N2CCN(Cc3ccccc3)CC2)cc1	-16	3951	-4	3.2	9	6	1
COC(=O)C1=C(N)Oc2cc(C)n(CC3CCCO3)c(=O)c2C1c1ccccc1 (configuration not stated)	-9	2513	3	-6.6	11	14	-1
FC(F)(F)c1cccc(NC(=S)NCC(c2cccnc2)N2CCOCC2)c1 (configuration not stated)	-11	2090	-2	7.0	x	x	6
CCOC(=O)N1CCN(C(=O)c2cc(COc3cccc(C(C)=O)c3)on2)CC1	-36	4873	3	4.6	-9	-5	16
O=C(CC(Cc1ccccc1)c1ccco1)NCc1ccco1 (configuration not stated)	-11	5595	13	3.3	-1	-1	11
O=C(CC(c1ccccc1)c1ccccc1)N1CCN(c2ccccn2)CC1	-5	3920	6	10	21	9	3
O=C(Nc1ccc(Cl)c(S(=O)(=O)N2CCOCC2)c1)c1n[nH]c(=O)c2ccccc12	x	5225	x	-0.8	5	-4	-1
COc1ccc(C(O)(C2CCCCC2)C(CN2CCOCC2)c2ccccc2)cc1 (configuration not stated)	-23	4150	6	-1.0	-6	7	20
Cn1c(=O)c2c(nc(CN3CCN(c4ccccc4F)CC3)n2CCCc2ccccc2)n(C)c1=O	83*	3126	-11	15	-10	9	4
CCC(=O)Nc1ccccc1C(=O)N1CCN(Cc2ccccc2)CC1	-22	3544	-4	0.4	x	x	8
O=C(NCCCN1CCCC1=O)c1cc2c(s1)CCCCC2	-29	3513	-4	6.8	7	4	3
COc1ccc(NC(=O)CSCC(=O)N(C)CCOc2ccc(Cl)cc2)cc1	-15	5529	6	1.5	0	4	8
CC(C)CN(CC(C)C)C1=NC(=Cc2ccco2)C(=O)N1c1ccccc1	x	x	x	-2.9	6	11	12
COc1ccc2nc(C)cc(SCC(=O)N/N=C/c3ccc(O)c(O)c3)c2c1	-6	4307	-2	x	x	x	x
CCOC(=O)c1ccccc1NC(=O)CSc1nc2ccncc2[nH]1	-14	4499	-6	2.0	6	-6	13
O=C(CSc1nnc(-c2ccc(F)cc2)c2ccccc12)Nc1ccccc1	-19	1997	5	4.0	9	9	2
CC1CC(C)(C)NCCNC(C)CC(C)(C)NCCN1 (configuration not stated)	-11	9161	3	5.7	2	12	-5
COC(=O)c1cc2sc(Cl)cc2n1CC(=O)Nc1ccc(OC)c(OC)c1OC	-13	6760	-10	-1.7	-4	-3	-11
CC(C)CC(=O)N1CCN(S(=O)(=O)c2ccccc2)CC1	-20	9618	0	3.0	15	6	2
O=C(CC1C(=O)NCCN1CC1CCCCC1)NCc1ccc(Cl)cc1 (configuration not stated)	-14	2487	-3	3.4	-5	5	-9
Cn1c(CCc2ccccc2)nnc1SCC(=O)N1CCCC1	-2	4145	0	0.5	x	x	-9
CSc1nc(N)c(C#N)c(-c2ccccc2Cl)c1C#N	-7	2433	8	-6.1	4	10	48
N#C/C(=C/c1ccc(OCc2ccc(C(=O)O)cc2)c(Br)c1)c1cccc(F)c1	-6	4551	5	1.8	2	12	11
Cc1nnc(NC(=O)CCC(=O)N2CCC(C)CC2)s1	-20	6028	4	0.3	1	13	-10

The final four compounds of the section above lead into the next:
SMILES	PrP UTR inh	Autofluor counter	BJeLR viability	RN4220 kill	Mtb hypoxia rep	Mtb hypoxia rep growth	Sa ugtP lethal
Cn1c(CCc2ccccc2)nnc1SCC(=O)N1CCCC1	-2	4145	0	0.5	x	x	-9
CSc1nc(N)c(C#N)c(-c2ccccc2Cl)c1C#N	-7	2433	8	-6.1	4	10	48
N#C/C(=C/c1ccc(OCc2ccc(C(=O)O)cc2)c(Br)c1)c1cccc(F)c1	-6	4551	5	1.8	2	12	11
Cc1nnc(NC(=O)CCC(=O)N2CCC(C)CC2)s1	-20	6028	4	0.3	1	13	-10
Cc1occc1C(=O)NNC(=S)NCc1ccc(Cl)cc1	-11	4492	0	1.8	2	3	10
COc1cc(SC)ccc1C(=O)OCC(=O)N1CCCC1	-29	3802	3	1.4	15	-6	5
CN1CCN(C(=O)CN(C)S(=O)(=O)c2ccc(F)cc2)CC1	-26	3770	2	1.7	6	8	10
COc1ccc(-c2ncncc2-c2ccc(Cl)cc2)c(O)c1	4	5216	-8	3.3	2	-2	5
Cc1ccc(NC(=O)Cc2nnc(SCC(=O)Nc3ccccc3)n2C)cc1	3	8363	-20	3.8	4	1	5
CCC(=O)Nc1cccc(C(=O)/C=C/c2cccs2)c1	-9	1969	-7	7.5	4	10	4
Cc1ccc(OCCC(=O)NNC(=O)c2nn(C)c(=O)c3ccccc23)cc1	-5	4362	x	-0.2	8	4	0
COC(=O)c1ccccc1S(=O)(=O)N1Cc2cc([N+](=O)[O-])ccc2Oc2ccccc21	-20	4704	2	5.2	6	12	-7
COc1ccc(N(C(=O)Cn2nnc(-c3ccc(Cl)cc3)n2)C(C(=O)NCC2CCCO2)c2ccncc2)cc1 (configuration not stated)	-24	4800	0	2.5	5	-8	8
CCOC(=O)Cc1c(C)nc2c(-c3ccc(Cl)cc3)c[nH]n2c1=O	-2	3368	10	0.6	-5	-7	-3
Cc1ccc(NC(=O)COc2coc(CN3CCN(Cc4ccccc4)CC3)cc2=O)cc1	-5	u	0	5.4	11	-6	7
CCCOP(=O)(c1ccc(N(C)C)cc1)C(O)c1cccnc1 (configuration not stated)	-6	19815*	4	1.8	-2	5	4
Cc1ccc(C)c(OCC(=O)NN=Cc2c(C)nn(-c3ccccc3)c2Cl)c1C	x	x	x	11	-2	5	-12
Cc1ccsc1C=NNc1cccc(C(=O)O)c1	x	x	x	2.3	8	3	16
Cc1onc(-c2c(F)cccc2Cl)c1C(=O)N1CCN(c2ncc(Br)cn2)CC1	-10	4489	0	0.5	6	-14	4
Cc1ccc(CNC(=O)CCC(=O)Nc2nnc(C(C)C)s2)cc1	-15	5470	-11	0.4	5	4	2
N#CCCn1cc(C=NNC(=O)c2ccncc2)c(-c2ccccc2)n1	x	x	x	1.5	x	x	5
O=C(Cc1ccc(Br)cc1)Nc1cccc(S(=O)(=O)N2CCOCC2)c1	-2	4090	x	2.4	2	0	0
COc1ccc(/C=C2\Sc3ccc(C(=O)NCCN4CCCCCC4)cc3N(C)C2=O)cc1	-4	7518	8	-2.5	-2	12	-22
COc1cccc(-c2cc(C(=O)N3CCN(C(=O)c4ccco4)CC3)on2)c1	10	6340	2	-1.2	-3	8	-6
COc1ccc(Cl)cc1C(=O)NNC(=O)c1nc2nc(C)cc(C)n2n1	1	4752	9	5.0	0	-6	4
O=C1CN(C(=O)c2ccc(Br)o2)C(c2ccccc2)c2cc(F)ccc2N1 (configuration not stated)	8	5701	0	-5.0	6	12	-7
COc1ccc(NC(=O)Nc2ccc(N(C)C)cc2)cc1	-55	18854*	7	0.0	14	13	-1
CCOc1ccccc1CN1CCCC(C(=O)c2ccc(OC)c(OC)c2)C1 (configuration not stated)	-7	3740	7	-2.0	-11	0	3
O=C(O)C1CCC(=O)N1C1CCCC1 (configuration not stated)	-13	3905	x	0.9	x	x	6
Brc1ccc(NN=C(N=Nc2nn[nH]n2)c2ccccc2)cc1	x	x	x	66	x	x	45
Cc1ccccc1NC1=C(Cl)C(=O)OC1OC(=O)c1ccco1 (configuration not stated)	-21	11552	1	-0.3	8	4	-6
COCCOC(=O)C1=C(C)Nc2ncnn2C1c1ccc(F)cc1 (configuration not stated)	-13	4412	x	-3.4	0	-9	-9
CC1SC(c2ccccc2Cl)NC1=O (configuration not stated)	-5	2482	-4	4.8	6	6	4
CCOc1ccc(-n2c(SCC(N)=O)nnc2-c2ccco2)cc1	-22	3680	5	x	x	x	x
COC(=O)CC(NC(=S)NC(=O)c1ccccc1)c1ccc(Br)cc1 (configuration not stated)	4	3646	-4	2.2	-9	-6	-2
Clc1ccccc1CSc1nncn1NC/C=C/c1ccccc1	-22	2120	11	2.5	17	6	-13
CCOC(=O)C1=C(CSCc2ccccc2)NC(=O)NC1c1cc(C)ccc1C (configuration not stated)	-20	10489	-1	11	12	10	-27
CCOc1ccc(S(=O)(=O)Nc2cc(S(=O)(=O)N3CCOCC3)ccc2OC)cc1	-26	7789	x	7.8	10	-3	8
O=C(N/N=C1/CC2C=CCC12)c1cccs1 (configuration not stated)	-23	5246	-16	x	x	x	x
COc1cc(OC)cc(OC(=O)C2CCN(C(=O)c3ccc(Cl)cc3)CC2)c1	10	3731	x	3.4	-7	8	2
[N-]=[N+]=N[C@@H](CCN1CC[C@H](O)CCC1=O)c1ccccc1	-14	3845	9	x	x	x	x
Cc1ccc(NC(=S)N=Nc2c(O)n(C)c3ccc(S(=O)(=O)N4CCOCC4)cc23)cc1C	31	1997	12	5.3	5	-1	-6
CCN=C1SC(CC(=O)Nc2sc3c(c2C#N)CCCC3)C(=O)N1CC (configuration not stated)	0	2696	4	-0.3	1	2	-7
Cc1ccccc1C(=O)N1CCC(C(=O)Nc2ccc(S(=O)(=O)N3CCCCC3)cc2)CC1	6	4059	-7	4.1	0	-3	12
NC(=O)CSc1nnc(-c2ccc(S(=O)(=O)N3CCOCC3)cc2)n1CC1CCCO1 (configuration not stated)	-10	22288*	-1	3.5	-1	3	0
NC(=O)NC(=O)CC1S/C(=N/N=C/c2ccccc2)NC1=O (configuration not stated)	5	3294	-3	x	x	x	x
